# From PubChem BioAssay
# Sfp inh: qHTS Assay for Inhibitors of Bacillus subtilis Sfp phosphopantetheinyl transferase (PPTase). Biochemical Sfp PPTase activity, qHTS. Potency, µM, for inactives: max response, negative = inhibition, usual class: inhibitors. 310,000 tested, 3.5% active. AID 1490, 2009; active = well fitted inhibition curve with a large enough effect; inconclusive = small, poorly fitted or top-dose-only effect, or another doubt; inactive = no such curve, though single readings can be large or run the other way;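 also: the enzyme is Sfp with the accession as filed and its product quenches rhodamine fluorescence; potency is read from the fitted curve at half-maximal effect; 0% = enzyme reaction without inhibitor and -100% = no enzyme wells; top concentration of the series not given in the record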
#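 Buffer: 50 mM Hepes-Na pH 7.6, 10 mM MgCl2, 0.01% Nonidet P-40, 0.01% BSA. Enzyme 15 nM, pre-exposed to compound 15 min; substrates then added and fluorescence change tracked over 30 min.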
# D2 agonist: Beta-Arrestin HTS for Positive Allosteric Modulators of the Human D2 Dopamine Receptor: Agonists; D(2) dopamine receptor (Homo sapiens), P14416; DiscoveRx PathHunter D2 beta-arrestin, luminescence, 90 min; 100% = 57 uM dopamine signal; activation, % (test concentration not listed); 360,000 tested, 0.084% active; AID 624465, 2012; in the data active = activation above about 40%; inconclusive = about 15% to 40%; inactive = below about 15%; also: compound concentration not given in the record; the text of the record calls up to 30% inactive
#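 DiscoveRx PathHunter D2 beta-arrestin cells (2,100/well) attached overnight, then compound-stimulated 90 min at 37 C in HBSS/10 mM HEPES/0.1% Tween-20 buffer; beta-galactosidase complementation read by luminescence after 1 h at ambient temperature. Dopamine 57 uM final (EC100) as control.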
# Six1-Eya2 inh: qHTS Assay for Inhibitors of the Six1/Eya2 Interaction; 360,000 tested, 0.56% active; activity change, % (concentration not given with the values); AlphaScreen GST-Six1/His-Eya2 binding, biochemical; active compounds read low; control for the full effect not named in the record; Homeobox protein SIX1 (Homo sapiens) + Protein phosphatase EYA2 (Homo sapiens), …; in the data active = activity change below about -65%; inconclusive = about -30% to -65%; inactive = above about -30%; also: % is scaled to controls: 0 for no effect and ±100 for the full control effect
# Target sequence (O00167 whole entry, looked up): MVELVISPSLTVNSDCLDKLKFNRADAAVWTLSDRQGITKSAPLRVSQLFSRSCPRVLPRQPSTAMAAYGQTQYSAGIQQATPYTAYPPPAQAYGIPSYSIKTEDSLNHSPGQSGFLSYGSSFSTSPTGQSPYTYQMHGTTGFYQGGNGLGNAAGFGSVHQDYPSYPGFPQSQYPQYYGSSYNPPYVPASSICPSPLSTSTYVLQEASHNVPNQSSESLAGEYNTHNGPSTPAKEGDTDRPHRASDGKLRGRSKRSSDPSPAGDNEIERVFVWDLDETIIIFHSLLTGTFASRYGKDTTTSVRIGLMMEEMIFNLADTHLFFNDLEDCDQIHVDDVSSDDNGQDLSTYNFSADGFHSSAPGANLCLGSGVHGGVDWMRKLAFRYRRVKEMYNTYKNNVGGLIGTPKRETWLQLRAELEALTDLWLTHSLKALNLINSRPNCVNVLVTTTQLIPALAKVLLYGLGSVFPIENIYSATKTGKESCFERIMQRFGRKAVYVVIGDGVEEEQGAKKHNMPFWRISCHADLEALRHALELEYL
# Target sequence (Q15475 whole entry, looked up): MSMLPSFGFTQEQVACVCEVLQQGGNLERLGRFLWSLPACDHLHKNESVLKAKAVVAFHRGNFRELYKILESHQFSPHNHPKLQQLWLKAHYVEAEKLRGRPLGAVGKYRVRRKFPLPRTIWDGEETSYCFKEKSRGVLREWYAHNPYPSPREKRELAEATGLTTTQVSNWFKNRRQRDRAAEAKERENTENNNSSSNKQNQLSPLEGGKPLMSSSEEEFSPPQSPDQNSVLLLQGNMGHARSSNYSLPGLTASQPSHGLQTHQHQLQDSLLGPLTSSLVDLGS
#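 Compounds are tested against tagged Six1 and Eya2 proteins bridged by glutathione donor and nickel acceptor beads; after a one-hour incubation at 37 °C without light, AlphaScreen emission is recorded.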
# TRPV1 PAM: HTS Assay for Compounds that Act as Potentiators of the Vanilloid Receptor 1; TRPV1-expressing cells, Fluo-8 calcium influx, capsaicin EC20 potentiation; host cell line not named in the record; control for the full effect not named in the record; potentiation, % at 8.33 µM; AID 540277, 2011; Transient receptor potential cation channel subfamily V member 1 (Homo sapiens), Q8NER1; 320,000 tested, 0.02% active; active means potentiation above 80%; inconclusive means 30% to 80%; inactive means below 30%; also: 0% is about no effect
#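 Fluo-8 calcium influx in TRPV1-expressing cells, kinetic read (ex 480/em 520 nm). Compound added and read 3 min for agonist activity, followed by capsaicin at EC20 final and 2 min further read for enhancement.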
# D2 potentiator: Beta-Arrestin HTS for Positive Allosteric Modulators of the Human D2 Dopamine Receptor: Potentiators. D(2) dopamine receptor (Homo sapiens), P14416. DiscoveRx D2 beta-arrestin cells, luminescence, 90 min; 100% = 57 uM dopamine signal. potentiation, % (no concentration beside the values). 360,000 tested, 0.23% active; active = potentiation of 50% or more; inconclusive = 30% to 50%; inactive = 30% or less;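 also: compound concentration not given in the record; tested on top of an EC20 dose of dopamine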
#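 D2 cells co-treated with compound plus 50 nM dopamine (EC20) for 90 min at 37 deg C to detect potentiation. Beta-arrestin recruitment was read as enzyme-fragment luminescence after 1 h at ambient temperature. Full response was set by 57 uM dopamine.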
# CtBP-E1A inh: qHTS Assay for Inhibitors of the CtBP/E1A Interaction; CtBP / adenovirus E1A interaction (AlphaScreen); AlphaScreen GST-E1A/His-CtBP binding, 1536-well; active compounds read low; control for the full effect not named in the record; activity change, % (test concentration not listed); 340,000 tested, 0.49% active; in the data active means activity change below about -65%; inconclusive means about -30% to -65%; inactive means above about -30%; also: % is scaled to controls: 0 for no effect and ±100 for the full control effect
#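 Steps: dispense buffer (Tris pH 8.0, NaCl 300 mM, TCEP 1 mM, BSA, Tween 20); add 5X protein mix (GST-E1A, His-CtBP, 125 nM each); pin 23 nL compound; 2 h at 37 °C, dark; add 5X beads (50 ug/mL); 1 h; read.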
# PINK1 expr mod: A Quantitative High throughput Screen to Identify Chemical Modulators of PINK1 Expression | PINK1 immunofluorescence, high-content cytometry, 24 h | Potency, µM (top dose mostly 76.6 µM), inactives show at the highest dose activation (PINK1 increase), actives largely listed as activators | 410,000 tested, 0.2% active | AID 624263, 2012; active = well fitted activation curve with a large enough effect; inconclusive = small, poorly fitted or top-dose-only effect; inactive = flat fitted curve, though single readings scatter; cell line not stated here;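 also: potency is read from the fitted curve at half-maximal effect; % of control where 0% means no effect; nearly all actives have a fitted effect of over 65% in size; a mitochondrial uncoupler was the plate control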
#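 A stable cell line was treated with compounds at 5 concentrations for 24 hours, with CCCP as control. PINK1 levels and mitochondrial localization were measured by immunofluorescence with mitochondrial, cell and nuclear markers after fixation, read by laser-scanning cytometry.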
# Numbers without * were called inactive; ? = inconclusive; nt = not tested or not shown; & = joins results of further samples; [ ] = remark or other dose. This is a random part of the collection; about 3.7% have a hit in one of these screens.
SMILES,Sfp inh,D2 agonist,Six1-Eya2 inh,TRPV1 PAM,D2 potentiator,CtBP-E1A inh,PINK1 expr mod
O=C(COC(=O)C1CC2C=CC1C2)Nc1ccccc1[N+](=O)[O-] (centres undefined),nt,-2.9,-27,nt,5,2,0.7%
NCCCCc1cn(CC(=O)N2CCNCC2)nn1,9%,1.1,9,-2,-2,7,0.1%
Cc1cccc(OCCCn2ccnc2)c1,1%,-0.9,-2,11,-2,-7,2.3%[38.3 µM]
CCOC(=O)C1(Cc2cccc(F)c2)CCN(Cc2cnn(CC)c2)CC1,21%,-1.5,12,-3,-13,nt,1.2%
Cc1cccc(NC(=O)COC(=O)c2ccc(C)c(S(=O)(=O)N3CCCCC3)c2)c1,nt,-0.8,-6,2,0,1,1.9%
CC1(C)CC(=Cc2ccccc2[N+](=O)[O-])C(=O)c2ccccc21,nt,-6.3,-16,nt,-5,-14,8.8%
NC(=O)C1CCCN(Cc2ccc3ccccc3c2)C1 (centres undefined),10%,-2.4,1,-34,-8,nt,-0.6%
CCN(CC)CCCNC1=C(Cl)C(=O)c2ccccc2C1=O,-3%,3.1,-21,12,3,-25,-1.5%
CCc1nc2ccc(C(=O)NCCCn3ccnc3)cn2c1N(C)CCC(C)C,nt,-2.6,0,nt,-10,-5,-0.1%
Cc1cc(C)c2cc(CNC3CCCC3)c(Cl)nc2c1,2%,-3.8,1,-12,-28,1,4.3%
Cc1cccc(C(=O)N[C@H](C(=O)Nc2ncc(C)s2)C(C)C)c1,11%,-3.0,3,-7,-35,-1,4.2%
CCC(C)c1ccccc1N1CC(C(=O)Nc2ccc(N3CCOCC3)cc2)CC1=O (centres undefined),nt,-4.5,3,-18,7,7,4.0%
N#Cc1ccccc1NC(=O)COC(=O)/C=C/c1cn(-c2ccccc2)nc1-c1ccc(Cl)cc1,4%,-1.7,2,-4,6,0,6.8%
Cc1ccc(N(C)C(=O)CCS(=O)(=O)c2cc3c(cc2Cl)NC(=O)CO3)cc1,-1%,-2.8,2,-37,-4,-8,1.6%&-0.1%
O=C(COc1ccccc1)NNC(=O)c1cc2ccccc2oc1=O,22%,2.8,5,-4,?,3,-1.5%
CCCCc1c(O)n2c(nc3ccccc32)[nH]c1=O,19%,-4.6,-3,10,-43,-3,-0.5%
O=C(N/N=C\c1ccc2c(c1)OCO2)c1cncc(Br)c1,8%,-2.2,-18,2,-5,-2,0.7%
Cc1ccc(C(=O)Nc2nc(-c3cccnc3)cs2)o1,-14%,-0.5,-7,-4,?,6,1.1%
COc1ccc(-n2c(SCC(=O)Nc3ccc(NC(C)=O)cc3)nc3c([nH]c4ccccc43)c2=O)cc1OC,7%,-2.0,-2,6,6,-8,?
O=S(=O)(NCCN1CCCC1)c1ccc(Br)cc1,19%,-3.7,5,-1,-5,-9,4.8%
CCCc1cc(=O)[nH]c(SCC(=O)c2ccc3c(c2)OCCO3)n1,-6%,2.8,-7,1,-27,17,1.6%
O=C(Oc1ccccc1F)C1CCN(C(=O)c2ccc(F)cc2)CC1,nt,-4.5,-7,4,-22,5,2.4%
Cc1ccc(C(=O)c2cn(-c3ccc(F)c(Cl)c3)nn2)cc1,-9%,0.5,6,1,-1,-6,6.0%
N#Cc1c(N)nc2c(c1N)CC(C(F)(F)F)O2 (centres undefined),12%,-4.0,8,8,-4,-12,-0.9%
Nc1nc(N2CCN(C(c3ccccc3)c3ccccc3)CC2)n[nH]1,-6%,-0.8,-22,-10,4,-28,1.1%
# (listing goes on)
SMILES,Sfp inh,D2 agonist,Six1-Eya2 inh,TRPV1 PAM,D2 potentiator,CtBP-E1A inh,PINK1 expr mod
CCC(CO)Nc1ccc(-c2n[nH]c(=O)c3ccccc23)cc1[N+](=O)[O-] (centres undefined),-8%,0.0,-24,13,-3,-22,2.4%
CC1COc2ccccc2N1S(=O)(=O)c1cc(Cl)ccc1Cl (centres undefined),-8%,-0.4,0,-8,-2,10,5.4%
CCCn1c(O)c(CN2CCCCC2)c(C)c(C#N)c1=O,-3%,8.0,4,-20,64*,-6,0.7%
CCn1cc(S(=O)(=O)CC(=O)Nc2cc(C)ccc2C)c2ccccc21,-3%,-3.4,7,nt,-6,7,-0.5%
Cc1onc(-c2ccccc2)c1C(=O)N1CCCN(C(=O)c2c(-c3ccccc3)noc2C)CC1,5%,-3.8,5,-10,2,-3,2.8%[38.3 µM]
Cc1ccc(NCc2ccccc2F)cc1,-2%,1.8,0,?,-16,8,1.9%
COCc1nnc(NS(=O)(=O)c2ccc(Br)cc2)s1,8%,-2.7,23,-3,-3,0,-0.3%
FC(F)(F)c1cc(Oc2ccccc2Cl)nc(-c2ccccn2)n1,5%,-2.1,1,nt,-16,4,-1.1%
CSc1ccc(S(=O)(=O)NCc2ccccc2)cc1,22%,-2.2,26,-15,-3,46,1.3%[38.3 µM]
COc1ccc(C)c2sc(N(CCN(C)C)C(=O)/C=C/c3cccs3)nc12,-18%,0.9,-6,-9,-46,6,-1.6%
OC(COc1ccc(F)cc1Cl)CN1CCC(Cc2ccccc2)CC1 (centres undefined),-7%,-2.0,-13,-15,-22,nt,1.9%
CCC1CCc2sc(C(=O)NNC(=O)c3ccncc3)cc2C1 (centres undefined),nt,4.0,-1,-19,4,10,-0.8%
CC(C)CNC(=O)C1(C)CCCN1C(=O)C(C)(C)Oc1ccc(Cl)cc1 (centres undefined),nt,-5.2,7,nt,-25,6,-0.1%
CC(C)(C)n1nc2c(c1NC(=O)COc1ccccc1F)CS(=O)(=O)C2,8%,-0.7,2,13,-2,9,3.3%
Cc1ccc(N2C(N)=C(C#N)C(c3cccnc3)C3=C2CCCC3=O)cc1 (centres undefined),-9%,2.8,4,-2,-1,2,11%
O=C(COC(=O)/C=C/c1ccc(C(F)(F)F)cc1)Nc1ccc2[nH]c(=O)[nH]c2c1,nt,-4.2,-2,2,-21,17,-1.8%
O=C1NCN(CCO)CN1,14%,0.0,-1,6,-2,nt,2.8%
CCc1cc(-c2[nH]ncc2-c2nc3ccccc3n2C)c(O)cc1O,9%,-4.6,-4,3,-10,-7,0.6%
Cc1cc(C)nc(NCC(O)CNc2ccccc2Cl)n1 (centres undefined),-9%,-0.7,1,?,1,-1,-1.4%
CCCSc1ccc([C@@H]2[C@H]3C(=O)N(CC)C(=O)[C@H]3[C@]3(C(=O)OC)CCCCN23)cc1OC,nt,-1.9,-21,28,-1,-12,4.7%
CCOc1ccc(C(=O)Nc2cc(-c3nc4ccccc4[nH]3)ccc2C)cc1[N+](=O)[O-],13%,0.9,-10,13,-8,-16,3.1%
Cc1nn(CC(C)C)c(Cl)c1C(=O)N(C)CC(=O)Nc1c(Cl)cccc1Cl,9%,-3.1,4,0,-9,-1,1.8%
Cc1cccc(-n2ccc(=O)c(C(=O)Nc3ccc(S(=O)(=O)Nc4nccs4)cc3)n2)c1,19%,-0.7,-14,14,6,-17,-0.3%
NS(=O)(=O)c1ccc(CCNC(=O)CSc2nc3ccccc3c(=O)n2CCN2CCOCC2)cc1,-8%,-5.5,4,22,-6,7,-1.0%
COc1ccc(C(C(=O)NCC2CCCO2)N(C(=O)Cn2nnc3ccccc32)c2ccc(NC(C)=O)cc2)cc1 (centres undefined),7%,-1.0,7,3,-5,3,-1.6%
# Additional entries
SMILES,Sfp inh,D2 agonist,Six1-Eya2 inh,TRPV1 PAM,D2 potentiator,CtBP-E1A inh,PINK1 expr mod
COCCN(CC(=O)Nc1cccc(C)c1C)C(=O)C1(c2ccc(Cl)cc2)CCC1,nt,-3.3,-2,nt,-7,2,0.4%
CC(=O)NC(Cc1ccccc1F)C(=O)NC1CCN(c2ncccc2[N+](=O)[O-])CC1 (centres undefined),-4%,0.1,0,22,-12,nt,0.0%
CC(C)C(=O)NC(=S)NCC(=O)c1ccccc1,3%,-1.3,-1,5,-20,5,3.1%
COc1ccc(C(=O)C[N+]2(C)CCOCC2)cc1,-7%,-0.8,18,4,-12,48,?
COC(=O)C1C(=O)CC(C)(O)C(C(=O)OC)C1c1ccc2c(c1)OCO2 (centres undefined),-2%,-1.9,6,9,-3,8,3.5%[38.3 µM]
C=CCn1c(COc2cccc(C)c2)nnc1SCC(=O)c1c[nH]c2c(CC)cccc12,3%,-1.6,8,1,-13,11,-1.0%
CCCNC(=O)CNC(=O)c1ccc(C#N)cc1,nt,0.3,4,nt,-22,7,2.6%
COc1ccc(CCNC(=O)c2cccn2C)cc1,19%,-4.5,-8,?,-6,19,-0.5%
OC[C@@H]1CN(Cc2ccc(F)cc2)C[C@H](n2cnc3c(NCc4ccco4)ncnc32)O1,nt,-1.0,-3,nt,-1,2,1.6%
Cc1ccc(OCC(=O)NC(=S)Nc2cccc(C)n2)cc1,4%,-3.6,8,17,-2,-14,3.5%
Cc1cccc(/C(N)=N/OC(=O)c2ccc(F)cc2)c1,12%,13,53,-1,-19,71,0.7%
CCCOc1ccc(C2c3c(oc4cc(C)c(C)cc4c3=O)C(=O)N2CCCN2CCOCC2)cc1 (centres undefined),50µM*,4.2,-4,nt,9,-1,2.1%
Cc1ccnc(NCc2ccc(Br)cc2)c1,13%,1.1,5,-1,-7,10,6.7%
Cc1cc(C(F)(F)F)nc(SCC(=O)Nc2ccccc2)n1,12%,-2.7,0,4,-13,2,7.9%[38.3 µM]
CCOC(=O)c1nn(-c2ccccc2)c2nc(-c3ccc(OC)cc3)c(C#N)c(=O)n12,6%,-3.4,2,4,-2,6,-0.7%
O=C(CN1CCN(S(=O)(=O)c2cc(Cl)ccc2Cl)CC1)Nc1ccc2c(c1)OCCO2,8%,0.5,-13,5,-18,-6,2.0%
Cc1ccccc1NC(=O)CSc1nc(=O)n(CCN2CCOCC2)c2c1CCCC2,nt,-4.2,-3,4,-27,6,-0.2%
CC(=O)c1ccc(N=Nc2c(C)[nH][nH]c2=O)cc1,nt,-7.0,0,nt,-10,0,-1.8%
